HEK293 NFkB inh – lowers PMA/ionomycin-induced NF-kB signal in HEK293 cells; inhibition, % at 3 µM; HEK-293 NF-kB luciferase reporter, luminescence; actives 0.21% (n = 62,000);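 active = inhibition above the mean of all tested compounds plus 3 SD, cut at about 40% in these data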;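 note: 0% = stimulated DMSO wells and 100% = 10 µM reference inhibitor 5653914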
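Signal: luciferase luminescence; Material: HEK-293 cells with stable firefly luciferase reporter driven by four HIV NF-kB elements; Probe or stimulus: PMA with ionomycin; Replication: tested once; Times: 1 h compound pretreatment, then 16 h stimulation at 37 °C, 5% CO2; Benchmarks: DMSO and 10 µM reference inhibitor; Evaluation: per-plate % inhibition versus controls.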
tolC growth inh – blocks growth of E. coli BW25113 tolC mutant; OD615; growth inhibition, % at 10 µM (by protocol); actives 2.2% (n = 65,000);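 active = growth inhibition at or above a cutoff equal to the mean over every tested compound plus 3 SD, cut at about 60% in these data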;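 note: growth measured after 20 h incubation at 37 °C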
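Test system – E. coli BW25113 ΔtolC::kan, tolC deletion mutant strain · Detection – OD at 615 nm · Buffer or medium – LB with kanamycin 50 µg/mL · Times – 20 h compound exposure of bacteria at 37 °C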
Jurkat viability – cytotoxicity toward Jurkat cells; Jurkat E6.1 viability, ATP luminescence, 48 h; inhibition, % at 4 µM; actives 1.2% (n = 56,000);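 active = inhibition above the mean inhibition of all tested compounds plus 3 SD, cut at about 28% in these data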
NADH coupling – blocks coupling enzymes of NAD/NADH assays. IC50, µM (doses to about 10 µM), for inactives: at the highest dose inhibition. actives 0.02% (n = 65,000). coupled PK/LDH NADH assays, four targets. AID 774;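 active = single-dose screening hits from any of four coupled enzyme assays that gave an IC50 when retested across doses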;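 note: the DPM-DC format reads NADH fluorescence rather than 340 nm absorbance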
SF1 activator – activators of human nuclear receptor SF-1 | actives 1.9% (n = 65,000) | Q13285 | CHO-K1 Gal4-SF-1 LBD luciferase reporter; % increase over DMSO SF-1-specific signal | AID 522 | activation, % at 10 µM;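 active = activation above the mean activation of all tested compounds plus 3 SD, cut at about 50% in these data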
Target sequence (Q13285 whole entry, looked up, the tested form may be a part): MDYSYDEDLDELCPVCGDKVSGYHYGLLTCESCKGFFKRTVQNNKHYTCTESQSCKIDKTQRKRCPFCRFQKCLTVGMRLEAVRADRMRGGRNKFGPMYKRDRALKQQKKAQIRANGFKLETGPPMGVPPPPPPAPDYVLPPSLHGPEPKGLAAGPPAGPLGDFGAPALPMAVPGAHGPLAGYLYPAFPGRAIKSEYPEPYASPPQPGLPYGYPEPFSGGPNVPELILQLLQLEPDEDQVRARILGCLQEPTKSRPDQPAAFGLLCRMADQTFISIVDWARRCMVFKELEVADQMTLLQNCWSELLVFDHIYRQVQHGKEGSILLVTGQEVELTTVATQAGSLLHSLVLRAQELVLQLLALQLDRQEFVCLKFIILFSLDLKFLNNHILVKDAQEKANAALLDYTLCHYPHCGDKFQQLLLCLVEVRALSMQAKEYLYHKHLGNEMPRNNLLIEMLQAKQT
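Test system: CHO-K1 cells co-transfected with Gal4 DBD–human SF-1 LBD, 5xGal4 luciferase reporter. Quantity: 4,000 cells per well. Compound: 10 µM only. Incubation: compound added 1 h post-seeding, 20 h exposure at 37 °C, 5% CO2. Detection: SteadyLite luciferase luminescence. Replication: one test per compound.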
Active calls of the source: *; . = not tested or not shown; & = joins results of further samples. The list is partial. The share of hits here may be higher or lower than overall.

no.	SMILES	HEK293 NFkB inh	tolC growth inh	Jurkat viability	NADH coupling	SF1 activator
1	CCCn1c(=O)[nH]c(=O)c2[nH]cnc21	.	8.4	.	1.0%	-17.8
2	O=C1OCCC1Sc1nnc(-c2ccccc2)o1 (stereo unspecified)	4.3	-11.2	-4.9	5.0%	0.2
3	C[N+](C)(C)CCCCCCCCCC[N+](C)(C)C	.	6.3	.	6.0%	-6.0
4	Nc1ncnc2c1ncn2[C@@H]1O[C@H](CO)[C@@H](O)[C@H]1O	.	9.5	.	2.0%	0.1
5	Nc1ccc(S(=O)(=O)c2ccc(N)cc2)cc1	.	10.2	.	2.0%	-8.8
6	Cc1cccc(C)c1OCC(=O)Nc1ncn[nH]1	12.4	-7.9	-3.0	6.0%	-3.3
7	O=C(O)CCC(=O)N1CCc2cc(S(=O)(=O)NC3CCCC3)ccc21	4.0	-7.2	2.8	7.0%	5.5
8	Cc1c(OCC(F)(F)F)ccnc1CS(=O)c1nc2ccccc2[nH]1 (stereo unspecified)	.	12.8	.	2.0%	26.9
9	COc1ccc2c(c1OC)C(=O)OC2C1c2c(cc3c(c2OC)OCO3)CCN1C (stereo unspecified)	9.7	19.9&-12.8	9.6	1.0%&3.0%	-1.8&-15.6
10	CC(=O)O[C@]1(C(C)=O)CC[C@H]2[C@@H]3C=C(Cl)C4=CC(=O)CC[C@]4(C)[C@H]3CC[C@@]21C	.	8.9	.	2.0%	-13.9
11	NS(=O)(=O)c1cc2c(cc1Cl)NC(C(Cl)Cl)NS2(=O)=O (stereo unspecified)	.	6.8	.	3.0%	10.3
12	Nc1nc(Cl)nc2c1ncn2[C@H]1C[C@H](O)[C@@H](CO)O1	.	14.0&-0.9	.	3.0%&3.0%	-79.3&-5.3
13	CO[C@H]1C=CO[C@@]2(C)Oc3c(C)c(O)c4c(O)c(c(C=NN5CCN(C)CC5)c(O)c4c3C2=O)NC(=O)C(C)=CC=C[C@H](C)[C@H](O)[C@@H](C)[C@@H](O)[C@@H](C)[C@H](OC(C)=O)[C@@H]1C	.	7.1	.	6.0%	-6.7
14	c1ccc(-c2n[nH]c(-c3ccccn3)n2)nc1	-17.7	-2.8	10.3	3.0%	78.5*
15	CC(C)(S)[C@@H](N)C(=O)O	.	6.6	.	2.0%	9.6
16	CC1CCc2cc(F)cc3c(=O)c(C(=O)O)cn1c23 (stereo unspecified)	.	18.1	.	6.0%	-13.1
17	CC(C)(C)c1cc(Br)ccc1OCC(=O)Nc1ncn[nH]1	8.6	9.3	3.6	1.0%	6.5
18	CC1(C)O[C@@H]2C[C@H]3[C@@H]4CCC5=CC(=O)C=C[C@]5(C)[C@@]4(F)[C@@H](O)C[C@]3(C)[C@]2(C(=O)CO)O1	.	15.8	.	3.0%	0.7
19	C[C@@H]1C[C@H]2[C@@H]3CCC4=CC(=O)C=C[C@]4(C)[C@@]3(F)[C@@H](O)C[C@]2(C)[C@@]1(O)C(=O)COP(=O)(O)O	.	6.9	.	1.0%	-13.7
20	Cc1cc(C)nc(NS(=O)(=O)c2ccc(N)cc2)n1	.	1.8	.	3.0%	-7.6

Part of the list above, set out differently:
Below each compound – HEK293 NFkB inh	tolC growth inh	Jurkat viability	NADH coupling	SF1 activator
#9 COc1ccc2c(c1OC)C(=O)OC2C1c2c(cc3c(c2OC)OCO3)CCN1C (stereo unspecified)
  9.7	19.9&-12.8	9.6	1.0%&3.0%	-1.8&-15.6
#10 CC(=O)O[C@]1(C(C)=O)CC[C@H]2[C@@H]3C=C(Cl)C4=CC(=O)CC[C@]4(C)[C@H]3CC[C@@]21C
  .	8.9	.	2.0%	-13.9
#11 NS(=O)(=O)c1cc2c(cc1Cl)NC(C(Cl)Cl)NS2(=O)=O (stereo unspecified)
  .	6.8	.	3.0%	10.3
#12 Nc1nc(Cl)nc2c1ncn2[C@H]1C[C@H](O)[C@@H](CO)O1
  .	14.0&-0.9	.	3.0%&3.0%	-79.3&-5.3
#13 CO[C@H]1C=CO[C@@]2(C)Oc3c(C)c(O)c4c(O)c(c(C=NN5CCN(C)CC5)c(O)c4c3C2=O)NC(=O)C(C)=CC=C[C@H](C)[C@H](O)[C@@H](C)[C@@H](O)[C@@H](C)[C@H](OC(C)=O)[C@@H]1C
  .	7.1	.	6.0%	-6.7
#14 c1ccc(-c2n[nH]c(-c3ccccn3)n2)nc1
  -17.7	-2.8	10.3	3.0%	78.5*
#15 CC(C)(S)[C@@H](N)C(=O)O
  .	6.6	.	2.0%	9.6
#16 CC1CCc2cc(F)cc3c(=O)c(C(=O)O)cn1c23 (stereo unspecified)
  .	18.1	.	6.0%	-13.1
#17 CC(C)(C)c1cc(Br)ccc1OCC(=O)Nc1ncn[nH]1
  8.6	9.3	3.6	1.0%	6.5
#18 CC1(C)O[C@@H]2C[C@H]3[C@@H]4CCC5=CC(=O)C=C[C@]5(C)[C@@]4(F)[C@@H](O)C[C@]3(C)[C@]2(C(=O)CO)O1
  .	15.8	.	3.0%	0.7
#19 C[C@@H]1C[C@H]2[C@@H]3CCC4=CC(=O)C=C[C@]4(C)[C@@]3(F)[C@@H](O)C[C@]2(C)[C@@]1(O)C(=O)COP(=O)(O)O
  .	6.9	.	1.0%	-13.7
#20 Cc1cc(C)nc(NS(=O)(=O)c2ccc(N)cc2)n1
  .	1.8	.	3.0%	-7.6

Returning to the listing, starting two compounds before the break.
Screens by letter – A = HEK293 NFkB inh; B = tolC growth inh; C = Jurkat viability; D = NADH coupling; E = SF1 activator
[19] C[C@@H]1C[C@H]2[C@@H]3CCC4=CC(=O)C=C[C@]4(C)[C@@]3(F)[C@@H](O)C[C@]2(C)[C@@]1(O)C(=O)COP(=O)(O)O
  A: .; B: 6.9; C: .; D: 1.0%; E: -13.7
[20] Cc1cc(C)nc(NS(=O)(=O)c2ccc(N)cc2)n1
  A: .; B: 1.8; C: .; D: 3.0%; E: -7.6
[21] C[C@]12CCC(=O)C=C1CC[C@@H]1[C@@H]2C(=O)C[C@@]2(C)[C@H]1CC[C@]2(O)C(=O)CO
  A: .; B: -7.1; C: .; D: 2.0%; E: -2.3
[22] COC(=O)Nc1nc2ccc(Sc3ccccc3)cc2[nH]1
  A: .; B: 3.9; C: .; D: 2.0%; E: 36.4
[23] O=C(NCc1cccnc1)NC1(C(F)(F)F)Oc2ccc(Cl)cc2O1 (stereo unspecified)
  A: 16.4; B: 4.1; C: 44.7*; D: 3.0%; E: -17.0
[24] O=C(CCC1CCCCC1)Nc1ncn[nH]1
  A: 9.6; B: -6.2; C: 6.8; D: 4.0%; E: -11.7
[25] CN(C)CCC=C1c2ccccc2CCc2ccccc21
  A: .; B: 6.3; C: .; D: 1.0%; E: -12.0
[26] CN1CCC(=C2c3ccccc3C=Cc3ccccc32)CC1
  A: .; B: 18.7; C: .; D: 2.0%; E: -5.6
[27] Cc1cccc(N(C)C(=S)Oc2ccc3ccccc3c2)c1
  A: .; B: 15.8; C: .; D: 3.0%; E: 8.9
[28] COc1ccc2c(c1)c(CC(=O)O)c(C)n2C(=O)c1ccc(Cl)cc1
  A: .; B: 6.9; C: .; D: 3.0%; E: 12.8
[29] Brc1c(NC2=NCCN2)ccc2nccnc12
  A: .; B: 8.1; C: .; D: 1.0%; E: 6.4
[30] NS(=O)(=O)c1cc2c(cc1C(F)(F)F)NCNS2(=O)=O
  A: .; B: 5.3; C: .; D: 3.0%; E: 0.6

Screening results (PubChem)
